Assay outcomes: PubChem, several laboratories
HUVEC prolif 384 – human endothelial cell proliferation inhibition; viability, % at 10 µM (by protocol); HUVEC proliferation, CellTiter-Glo luminescence, 72 h; stronger effect = lower value; 1.1% of 86,000 active; AID 648;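 active means viability at or below 30%; inactive means viability above 30%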;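 further: 100% = median luminescence of DMSO-only cell control wells on each plate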
Smad3 FoxH1 inh – Smad3 (human) transcription factor binding inhibition | TR-FRET Smad3/Dy647-FoxH1 peptide binding, europium anti-His | AID 630 | P84022 | 0.29% of 88,000 active | inhibition, % at 25 µM;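 active means compounds that reduce the energy-transfer binding signal between the protein and its labelled peptide by more than half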;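 further: 0% = Smad3 plus labelled peptide maximal FRET and 100% = peptide-only background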
Target sequence (P84022 whole entry, looked up): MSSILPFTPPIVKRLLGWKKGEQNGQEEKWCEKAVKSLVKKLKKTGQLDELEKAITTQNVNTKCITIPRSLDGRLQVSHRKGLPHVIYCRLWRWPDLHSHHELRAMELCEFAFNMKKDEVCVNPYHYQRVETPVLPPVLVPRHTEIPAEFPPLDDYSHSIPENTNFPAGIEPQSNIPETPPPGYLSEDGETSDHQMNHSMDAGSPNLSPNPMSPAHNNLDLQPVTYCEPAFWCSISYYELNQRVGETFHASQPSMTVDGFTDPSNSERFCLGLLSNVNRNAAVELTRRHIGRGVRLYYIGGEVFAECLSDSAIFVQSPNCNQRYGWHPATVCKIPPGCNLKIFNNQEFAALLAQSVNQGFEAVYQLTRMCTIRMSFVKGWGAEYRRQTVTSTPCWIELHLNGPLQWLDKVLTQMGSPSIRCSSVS
MT1-MMP txn act – MT1-MMP promoter transcription activation; HT1080 MT1-MMP promoter luciferase reporter, luminescence, overnight; stronger effect = higher value; AID 750; 0.16% of 86,000 active; activation factor at 10 µM;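 active means activation factor of at least 2 for MT1-MMP transcription at 10 µM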
Mac1 fbg enh – CD11b/CD18-fibrinogen binding enhancement; P05107+P11215; 0.07% of 93,000 active; activation, % at 10 µM; K562 CD11b/CD18 adhesion to fibrinogen, ATPlite luminescence; AID 1499;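 active means 10 µM primary screen giving 50% or more activity, confirmed by 40% or more on retest at that dose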; further: strong numbers were not always called active
Lung fibro prol – blocks proliferation of human lung fibroblasts | AID 719 | 1.1% of 85,000 active | LL 47 human lung fibroblast viability, ATP luminescence; stronger effect = lower value | viability, % at 10 µM;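 active means viability at or below 50% in the single dose screen; inactive means viability above 50%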;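 further: compound exposure lasted 72 h before the ATP readout; 100% = median luminescence of untreated cell-only wells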
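Test system: LL 47 human lung fibroblasts / Incubation: 72 h compound exposure at 37 °C after overnight plating / Technique: luminescent ATP detection, CellTiter-Glo / Compound dosing: 0.1% DMSO in all compound wells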
Numbers without * were called inactive; [ ] = remark or other dose. Only part of the results is shown. The share of hits here may be higher or lower than overall.

`C#C[C@]1(O)CC[C@H]2[C@@H]3CCC4=CC(=O)CC[C@]4(C)[C@H]3CC[C@@]21C` gave HUVEC prolif 384 93, Smad3 FoxH1 inh -4, MT1-MMP txn act 0.9 and Lung fibro prol 95.
COC1=CC(=O)OC(/C=C/c2ccccc2)C1 (centres undefined) was read as HUVEC prolif 384 110, Smad3 FoxH1 inh 0, MT1-MMP txn act 1.3 and Lung fibro prol 106.
`Cc1cccc(C)c1NC1=NCCCS1` gave HUVEC prolif 384 99, Smad3 FoxH1 inh -7, MT1-MMP txn act 1.1, Mac1 fbg enh -6 and Lung fibro prol 103.
`C[C@H]1CCCC(=O)CCC/C=C/c2cc(O)cc(O)c2C(=O)O1` gave HUVEC prolif 384 52, Smad3 FoxH1 inh 3, MT1-MMP txn act 0.8, Mac1 fbg enh 2 and Lung fibro prol 106.
`O=C1CC[C@@]2(O)[C@H]3Cc4ccc(O)c5c4[C@@]2(CCN3CC2CC2)[C@H]1O5` gave HUVEC prolif 384 106, Smad3 FoxH1 inh -8, MT1-MMP txn act 1.2 and Lung fibro prol 111.
For Clc1ccc(COC(Cn2ccnc2)c2ccc(Cl)cc2Cl)cc1 (centres undefined) the results were HUVEC prolif 384 9.2*, Smad3 FoxH1 inh -3, MT1-MMP txn act 1 and Lung fibro prol 78.
Screening CN1CCN(C(=O)OC2c3nccnc3C(=O)N2c2ccc(Cl)cn2)CC1 (centres undefined) returned HUVEC prolif 384 106, Smad3 FoxH1 inh -19 and Lung fibro prol 109.
For CCCOP(=O)(O)c1c([N+](=O)[O-])cc(C(F)(F)F)cc1[N+](=O)[O-] (tested in a mixture with another compound) the results were HUVEC prolif 384 82, Smad3 FoxH1 inh 10[fluorescence artefact?], MT1-MMP txn act 1.1, Mac1 fbg enh 1 and Lung fibro prol 111.
CCCC(C)(COC(N)=O)COC(=O)NC(C)C (centres undefined) was read as HUVEC prolif 384 97, Smad3 FoxH1 inh 4, MT1-MMP txn act 1 and Lung fibro prol 100.
`CCOC(C(=O)OCCC[N+](C)(CC)CC)(c1ccccc1)c1ccccc1` gave HUVEC prolif 384 86, Smad3 FoxH1 inh 13, MT1-MMP txn act 1.1, Mac1 fbg enh 19 and Lung fibro prol 94.
`Cc1ccc(C2C(S(C)(=O)=O)=C(O)C(=O)N2c2ccccc2)cc1` (centres undefined) (tested in a mixture with another compound) gave HUVEC prolif 384 99, Smad3 FoxH1 inh 16, MT1-MMP txn act 1.2 and Lung fibro prol 103.
`C[N+]1(C)[C@@H]2CC(OC(=O)[C@H](CO)c3ccccc3)C[C@H]1[C@@H]1O[C@@H]12` (some centres undefined) gave HUVEC prolif 384 98, Smad3 FoxH1 inh 6, MT1-MMP txn act 1.1 and Lung fibro prol 94.

Pulled by structure from the entries so far (3):
For CCCOP(=O)(O)c1c([N+](=O)[O-])cc(C(F)(F)F)cc1[N+](=O)[O-] (tested in a mixture with another compound) the results were HUVEC prolif 384 82, Smad3 FoxH1 inh 10[fluorescence artefact?], MT1-MMP txn act 1.1, Mac1 fbg enh 1 and Lung fibro prol 111.
`C[C@H]1CCCC(=O)CCC/C=C/c2cc(O)cc(O)c2C(=O)O1` gave HUVEC prolif 384 52, Smad3 FoxH1 inh 3, MT1-MMP txn act 0.8, Mac1 fbg enh 2 and Lung fibro prol 106.
`Cc1cccc(C)c1NC1=NCCCS1` gave HUVEC prolif 384 99, Smad3 FoxH1 inh -7, MT1-MMP txn act 1.1, Mac1 fbg enh -6 and Lung fibro prol 103.

Structural class: those above with sulfur.
`Cc1cccc(C)c1NC1=NCCCS1` gave HUVEC prolif 384 99, Smad3 FoxH1 inh -7, MT1-MMP txn act 1.1, Mac1 fbg enh -6 and Lung fibro prol 103.
`Cc1ccc(C2C(S(C)(=O)=O)=C(O)C(=O)N2c2ccccc2)cc1` (centres undefined) (tested in a mixture with another compound) gave HUVEC prolif 384 99, Smad3 FoxH1 inh 16, MT1-MMP txn act 1.2 and Lung fibro prol 103.
